UUG fidelity = alters start codon recognition fidelity in yeast; S. cerevisiae UUG-firefly luciferase reporter, luminescence/redox ratio; activity score, % at 18.7 µM; 350,000 compounds, 0.13% hits;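 active = replicate mean at a twofold rise or more, about +100% in these data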;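 note: firefly luciferase made from a UUG start codon reports start codon fidelity; reporter light over untreated wells divided by growth signal over untreated wells; some hits fall short of that in this replicate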
MT1-MMP act inh = inhibitors of human MT1-MMP activation; P50281; 360,000 compounds, 0.061% hits; GFP/RFP ratio change, % at 20 µM; AID 651647; HT1080 RFP-PRO-GFP cells, GFP/RFP ratio fluorescence, overnight; percent of plate control window, DMSO zero;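 active = GFP/RFP ratio change of at least 30% with cell ATP level not reduced by more than half and red fluorescence within 50% of control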; note: strong numbers were not always called active
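Material: RFP-PRO-GFP reporter HT1080 cells. Dosing: single-point 20 µM compound, 1% DMSO. Controls: DMSO and RFP-L50D-GFP cell wells. Timing: cells overnight before dosing, compound overnight, 37 °C, 5% CO2. Measure: GFP/RFP fluorescence ratio.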
Rce1 inhib = yeast Ras-converting enzyme inhibition | yeast membranes, quenched prenylated peptide cleavage fluorescence | calls only | 290,000 compounds, 0.27% hits;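 active = fall in fluorescence gain of 50% or more versus controls, with final raw signal at or below 3038400; inconclusive = same 50% fall but final raw signal above 3038400; inactive = fall in fluorescence gain under 50%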;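 note: plate controls were neutral control wells for no effect and wells lacking membranes for full effect; tested at 10 µM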
Target sequence (Q03530 whole entry, looked up): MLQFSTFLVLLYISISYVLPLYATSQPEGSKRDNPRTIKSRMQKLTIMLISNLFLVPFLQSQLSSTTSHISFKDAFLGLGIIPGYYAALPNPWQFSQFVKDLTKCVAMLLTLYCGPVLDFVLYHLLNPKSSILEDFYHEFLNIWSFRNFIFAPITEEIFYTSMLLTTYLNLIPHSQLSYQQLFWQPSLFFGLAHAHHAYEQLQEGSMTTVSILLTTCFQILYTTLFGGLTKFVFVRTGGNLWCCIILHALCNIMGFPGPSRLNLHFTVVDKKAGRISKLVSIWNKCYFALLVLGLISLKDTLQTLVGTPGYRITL
Env fusion inh = inhibitors of HIV Env-mediated cell fusion; inhibition, % at 12.3 µM; HeLa-JRFL Env/CEM21 cell fusion, luciferase; AID 651610; 360,000 compounds, 1.1% hits;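 active = mean replicate inhibition score of at least 50 and every replicate individually at or above 50; inconclusive = only one of the two criteria met; inactive = mean below 50 and not all replicates reaching 50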;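 note: 0% = plate neutral controls and 100% = maraviroc near 300 nM; one replicate is shown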
eIF4H inh = inhibitors of RNA binding by human eIF4H | Q15056 | eIF4H fluorescence polarization binding assay | inhibition, % at 35 µM | 290,000 compounds, 0.94% hits | AID 2012;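 active = 50% or more with normal probe brightness, or confirmed in later tests; inconclusive = above 50% with abnormal brightness, or retests that disagree; inactive = below 50% or failed in later tests; about a fifth of its hits are not listed in these tables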;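 note: calls also rest on retests at 20 µM and on dose response follow-up; 0% = protein and probe with vehicle and 100% = probe without protein; strong numbers were not always called active; many hits fall short of the cut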
PABP FP inh = blocks human PABP binding to poly(A) RNA; fluorescence polarization; 290,000 compounds, 1% hits; P11940; inhibition, % at 35 µM; AID 2014;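 active = 50% or more with normal probe brightness, or confirmed in later tests; inconclusive = above 50% with abnormal brightness, or retests that disagree; inactive = below 50% or failed in later tests; about a fifth of its hits are not listed in these tables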;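 note: calls also rest on retests at 20 µM and on dose response follow-up; controls were probe without protein and protein plus probe with vehicle; some compounds called inactive have numbers as strong as hits; many hits fall short of the cut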
CSC inhib = blocks cancer stem cells. inhibition, % at 7.5 µM. 300,000 compounds, 1.1% hits. AID 2717. cancer stem cell-like cells viability, luminescence;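 active = mean at 75% or more and at least half the replicates too; inconclusive = mean and replicates disagree; tested in HMLE shEcad cells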;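 note: 0% = median of negative and 100% = median of positive control wells; the first replicate is given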
eIF4H inh retest = second read-out of eIF4H inh, no call of its own (marks repeat the call); inhibition, %; compound at 20 µM; confirmation average;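 mean of two retest wells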
PABP FP inh retest = recorded beside PABP FP inh, whose call it bears; inhibition, %; compound at 20 µM; confirmation repeats;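 mean of two retest wells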
MT1-MMP act inh RFP = recorded beside MT1-MMP act inh, whose call it bears; RFP signal change, %; measured here: RFP expression control read;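 0 = vehicle wells; hits needed this value within 50% of zero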
* = called active by the depositor; i = inactive; ? = inconclusive; . = no result given; & = joins results of further samples; [ ] = dose if it differs, or a comment.

Preview (2 entries):
SMILES	UUG fidelity	MT1-MMP act inh	MT1-MMP act inh RFP	Rce1 inhib	Env fusion inh	eIF4H inh	PABP FP inh	CSC inhib	others
Oc1ccc(F)cc1-c1cc(-c2ccc3c(c2)OCCO3)n[nH]1	.	7	-1	i	.	8	-5	42
CN(C/C=C/c1ccccc1)C1CCCCC1	-19	-2	0	i	5	-1	-2	13

Results (from the top)
SMILES	UUG fidelity	MT1-MMP act inh	MT1-MMP act inh RFP	Rce1 inhib	Env fusion inh	eIF4H inh	PABP FP inh	CSC inhib	others
Oc1ccc(F)cc1-c1cc(-c2ccc3c(c2)OCCO3)n[nH]1	.	7	-1	i	.	8	-5	42
CN(C/C=C/c1ccccc1)C1CCCCC1	-19	-2	0	i	5	-1	-2	13
CCCCC(=O)Nc1ccc(N2CCN(c3ccc(F)cc3)CC2)cc1	-11	4	1	i	14	6	1	.
CCCCN(Cc1ccco1)S(=O)(=O)c1c[nH]c(C(=O)OC)c1	-2	0	-2	i	4	-9	4	3
O=C(COC(=O)/C=C/c1ccco1)Nc1cccc([N+](=O)[O-])c1	-1	-6	-3	i	-11	91	-10	0	eIF4H inh retest=-6;PABP FP inh retest=4
CC(=O)N/C(=C\c1ccccc1)C(=O)NC(C)C(=O)O (stereo not given)	.	3	3	i	-3	-7	0	-8
Cc1cc(C)n(-c2ccc(C(=O)NC(C)C)cc2)n1	8	11	3	i	.	4	-11	2
CC(C)(OC(=O)c1ccc(C(F)(F)F)cc1)c1cc2ccccc2c(=O)o1	6	2	0	.	2	.	.	-11
Cc1cc(N2CCOCC2)nc(-c2ccc([N+](=O)[O-])cc2)n1	-5	4	-2	i	2	-2	-2	1
Oc1ccccc1-c1nnc(-c2ccc(C(F)(F)F)cc2)o1	-33	2	2	i	-106	0	-2	36
O=C(N/N=C/c1cc2c(cc1Cl)OCO2)c1ccncc1	.	1	3	i	-6	-3	-1	-8
O=C(CSc1nnc(SCc2ccc(Cl)cc2)s1)N1CCOCC1	-9	3	-5	i	49	1	-16	-6
CC1(OC(=O)C2CCCC2)C(=O)C=C2C=C(c3ccsc3)N(C(CO)CO)C=C2C1=O (stereo not given)	2	-4	3	i	.	69	36	-6	eIF4H inh retest=23;PABP FP inh retest=49
CC(=O)c1cccc(NC(=O)C2CCCN(S(=O)(=O)c3ccccc3)C2)c1 (stereo not given)	.	-3	-3	i	.	-1	1	1
COc1cccc(C2C3=C(CCCC3=O)Nc3nc(-c4cc(OC)c(OC)c(OC)c4)nn32)c1 (stereo not given)	3	5	8	i	6	-18	0	-5
O=C(Cn1nnc(-c2ccccc2)n1)N/N=C/c1ccco1	-21	-5	0	i	9	0	-4	.
CCCc1cc(C(N)=O)c(NC(C)=O)s1	-23	0	4	i	8	-2	5	1
COc1ccc(C(=O)N=C2SC3CS(=O)(=O)CC3N2c2ccc(N(C)C)cc2)cc1OC (stereo not given)	-21	2	2	i	-2	6	-8	12
Cc1ccccc1Oc1nc2ccccn2c(=O)c1/C=C(\C#N)C(=O)Nc1c(C)n(C)n(-c2ccccc2)c1=O	.	-4	-2	i	15	9	-7	-5
COc1ncnc2sc(-c3ccccc3)cc12	-12	-6	0	i	.	-3	-1	5
N#Cc1ccccc1NC(=O)CSc1nnc(-c2ccncc2)o1	-12	0	4	i	-4	-1	8	6
O=C(NCc1cc([N+](=O)[O-])ccc1O)c1cccnc1Sc1ccc(Cl)cc1	0	5	-2	i	13	-16	11	10
COC(=O)CCSc1nc(N2CCOCC2)c2c(c1C#N)CC(C)(C)OC2	-15	0	0	i	17	0	5	-13
CC(C)CNC(=O)COC(=O)c1cc(S(=O)(=O)N(C)C)ccc1N1CCCC1	.	5	3	i	3	0	-7	-6
CCOC(=O)N/N=C/c1c(F)cccc1F	-8	4	5	i	-19	-5	-2	4
Cc1ccc(S(=O)(=O)c2nc(C(C)(C)C)oc2N2CCOCC2)cc1	-14	2	3	i	-9	-6	6	.
Cc1c(NC(=O)Nc2c(Cl)cccc2Cl)c(=O)n(-c2ccccc2)n1C	-16	3	6	i	9	-9	-8	10
CCOC(=O)C1(CCCc2ccccc2)CCN(S(=O)(=O)N(C)C)CC1	-13	-3	-14	i	1	-1	6	-3
CC(=O)c1cccc(CN2CCCCC2C(=O)Nc2ccc(Oc3ccccc3)nc2)c1 (stereo not given)	-11	0	-3	i	-8	5	-6	-14
CCN(CC)C(=O)C1=C(C)N(Cc2ccc(OC)cc2)C(=O)C(CC(=O)NCc2cccc3ccccc23)C1 (stereo not given)	1	1	0	.	-1	.	.	.
CCOc1cc(/C=N/NC(=O)C(=O)Nc2cc(Cl)ccc2C)ccc1O	.	-1	4	i	10	-1	?	.
C=CCNc1cc(N2CCCC2)ccc1[N+](=O)[O-]	.	12	7	i	-16	-7	-17	-18
Cc1cc(NC(=O)NN2CCOCC2)nn1-c1c(Cl)cc(Cl)cc1Cl	.	-1	-3	i	-2	2	-8	4
CCOc1cc2[nH]c(=O)n(CCC(=O)NCCc3ccc(OC)c(OC)c3)c(=O)c2cc1OCC	-11	3	2	i	-71	-1	-4	-6
CC1Cc2ccccc2N1CC(=O)c1c(N)n(Cc2ccccc2)c(=O)n(C)c1=O (stereo not given)	.	7	9	i	-6	6	12	3
O=C1C(=O)N(CCN2CCOCC2)C(c2ccc(Cl)c(Cl)c2)/C1=C(/O)c1ccc2c(c1)OCO2 (stereo not given)	-24	0	1	i	63*	-5	-16	10
CCN(Cc1ccncc1)C(=O)c1cc(COc2c(C)cccc2C)on1	-11	-5	-8	i	-7	-3	9	27
C[C@H]1CN([C@@H](C)CO)C(=O)c2cc(NS(=O)(=O)c3ccc(Cl)cc3)ccc2O[C@@H]1CN(C)CC1CCCCC1	-9&-2	-2	-2	.	-41	.	.	-25
Cc1ccc2nc(-c3ccncc3)c(NC3CCCCC3)n2c1	.	8	-2	i	17	?	?	-8
O=C(c1ccco1)N1CCC(c2nc3c(nnn3Cc3ccccc3Cl)c(=O)[nH]2)CC1	7	-2	1	i	2	-4	4	-14
CCc1c(C)nc2ncnn2c1N1CCC(C(=O)Nc2ccc(C)cc2)CC1	0	0	-10	i	?	0	-4	-4
Cc1nc(C(=O)Nc2ccccc2)sc1C(=O)Nc1ccccc1	5	12	-1	i	-2	2	10	11
CCCCOc1ccc(C(=O)N/C(=C\c2ccc(OC)cc2)C(=O)OCc2ccco2)cc1	-1	-1	-4	i	.	-1	-4	-1
CCCCCNC(=O)c1cccnc1SCC(=O)Nc1ccccc1OC	.	5	-1	i	-11	-2	-3	18
CNc1nc2sc3c(c2c(=O)n1C)CC(C)(C)SC3	-8	8	5	i	.	4	2	-4
CCN(CC)CCCn1c2c(c(SCC(=O)Nc3nc(C)cs3)nc1=O)CCC2	.	-2	-2	i	2	.	.	11
Cn1c(N)c(C(=O)COC(=O)CCC2CCCCC2)c(=O)n(C)c1=O	.	-2	-1	i	-6	4	-7	-1
O=C(c1ccccc1)N1CCN(C(=O)c2nn3c(C(F)(F)F)cc(-c4ccco4)nc3c2Cl)CC1	19	1	2	i	11	-3	16	2
O=C(NCC(c1ccco1)N1CCN(c2ccccc2F)CC1)OCc1ccccc1 (stereo not given)	.	0	2	i	-11	2	3	7
O=C(Nc1n[nH]c(C2CCCCC2)n1)C1CCCCC1	3	-1	1	i	.	-3	-5	-9

More records:
SMILES	UUG fidelity	MT1-MMP act inh	MT1-MMP act inh RFP	Rce1 inhib	Env fusion inh	eIF4H inh	PABP FP inh	CSC inhib	others
COc1ccc(N2c3ccccc3CN(Cc3ccccc3)[C@@H](C)[C@H]2Cc2cccnc2)cc1	11	-10	-17	.	-3	.	.	.
CC(=O)N[C@@H](C)C(=O)N1CCN(S(=O)(=O)c2ccc(Cl)cc2)CC1	.	0	4	i	3	8	6	-8
Nc1nnnn1CC(=O)N/N=C/c1cc([N+](=O)[O-])ccc1Cl	.	-4	-1	i	-38	-10	-8	-2
C[C@@H](NC(=O)C[C@@H]1C[C@@H]2c3cc(NS(=O)(=O)c4ccc(F)cc4)ccc3O[C@@H]2[C@@H](CO)O1)c1ccccc1	9	2	-4	.	-8	.	.	.
Cc1ccc(S(=O)(=O)Nc2ccc3c(c2)C(=O)N([C@@H](C)CO)C[C@@H](C)[C@@H](CN(C)C(=O)NC(C)C)OCCCC[C@H](C)O3)cc1	0&-5	-1	1	.	20[16.7 µM]	.	.	.
CCc1sc(NC(=O)CN2CCOCC2)nc1-c1ccccc1	-23	-2	0	i	.	-3	2	6
COc1ccc(-c2[nH][nH]c(=O)c2NC(=O)c2ccccc2Br)cc1	-13	2	3	.	22	.	.	.
COC(=O)c1sccc1NC(=O)c1ccc(OC)c([N+](=O)[O-])c1	-5	-1	2	i	-3	-4	2	-3
CC(C)(C)C1CCC(N2CCN(c3ccccc3)CC2)CC1 (stereo not given)	1	-1	-4	i	-9	-4	8	-9
COC(=O)c1ccc(NC(=O)CCN2C(=O)C3C4CCC(C4)C3C2=O)cc1 (stereo not given)	-7	4	2	i	-6	-5	-8	-1
OC(C#CCN1CCCC1)(c1ccccc1)c1cccnc1 (stereo not given)	134*	-1	3	i	-3	15	12	-1
COc1cc2ncc(C(=O)c3ccccc3)c(N3CCN(Cc4ccccc4)CC3)c2cc1OC	-14	0	-5	i	8	-5	7	5
CC1(C)C2CCC1(CS(=O)(=O)N1CCCc3ccccc31)C(=O)C2 (stereo not given)	7	2	5	i	.	2	-12	15
O=C(CC1C(=O)NCCN1CC1CCCCC1)NCc1ccc(F)cc1 (stereo not given)	-5	-3	-2	i	26	-3	1	-7
O=C(C1CCN(Cc2ccc(F)cc2)CC1)N(CCc1ccccc1)Cc1ccccc1	.	5	0	i	23	-8	0	50
CC(/C=C/C=C/c1ccccc1)=N/NC(=O)C(O)c1ccccc1 (stereo not given)	8	2	-1	i	0	-4	-2	0
O=C(CN(C(=O)c1csnn1)c1cccc(Cl)c1)NC1CCCCC1	8	2	-1	i	-8	-5	6	1
CS(=O)(=O)N(CC(=O)N1CCCC1)c1cc(C(F)(F)F)ccc1Cl	-18	0	4	i	13	-15	8	-3
COC(=O)c1nn(-c2ccccc2)c(Sc2ccc(C)cc2)c1/C=N/O	-8	-3	-10	.	.	-8	3	.
CCOc1ncccc1C(=O)OCC(=O)N(CC(C)C)c1c(N)n(Cc2ccccc2)c(=O)[nH]c1=O	.	-3	0	i	7	.	.	-12
CCN1CCN(c2ccc(NC(=O)c3ccc(Cl)c(N4CCCC4=O)c3)cc2)CC1	-9	3	4	i	4	-6	22	-2
COc1ccc(/C=C(/NC(=O)c2ccc(OC)cc2)C(=O)NCCc2c[nH]c3ccccc23)cc1	.	7	6	i	.	-12	-14	-1
Cc1ccc(-c2nc(NC(=O)c3cc(C(C)(C)C)nn3C)sc2C)cc1Cl	-16	-51	-39	i	0	9	7	57
O=C(N/N=C/c1cccc2ccccc12)c1cccnc1	-17	1	1	i	4	-17	-1	0
CC1(C(=O)NS(=O)(=O)c2cccc(C#N)c2)CCN1C(=O)Cc1ccc(Cl)cc1Cl (stereo not given)	0	-1	2	.	18	.	.	.
CN(C)c1ncc(C(=O)O)cn1	-12	-3	3	i	10	-3	-6	-4
CCC(C)C(=O)Nc1cccc(SC)c1 (stereo not given)	.	.	.	i	.	-4	12	4
Cc1cc(N2CCOCC2)nc(SCc2c(Cl)cccc2Cl)n1	-8	2	-2	i	21	2	-6	6
